High-throughput results: PubChem BioAssay, National Center for Advancing Translational Sciences (NCATS)
Bst PK mod: Pyruvate Kinase; partly purified Bacillus stearothermophilus pyruvate kinase, luminescence ATP production; ribose 5-phosphate activator present at AC10; Potency, µM; actives 1.2% (n = 51,000); AID 361, 2006; in the data active means potency below about 11 µM; inconclusive means mostly about 12 µM to 25 µM; inactive means weaker than that;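 the screen sought inhibitors and activators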;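 also: potency is read from the fitted curve at half-maximal effect; scaled between full activation by ribose 5 phosphate and full inhibition by luteolin; about four in five hits inhibit and the cells do not say which; series up to 57 µM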
YjeE inh: qHTS Assay for Inhibitors of YjeE; purified YjeE, fluorescence polarisation of a bound ADP probe; Potency, µM; actives 0.05% (n = 71,000); AID 605, 2007; active = well fitted falling curve; inconclusive = weaker or top-dose-only fall, or a rising curve; inactive = flat or poorly fitted curve;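 also: top concentration of the series not given in the record; excess ADP was the control for the full effect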
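Fluorescence polarization of a BODIPY Texas Red–ADP probe (2 uM) bound to purified YjeE (10 uM) was read after 15 min room-temperature incubation with compounds. Loss of polarization marks inhibitors; ADP serves as titrated control.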
The depositor's hits bear a star; i = inactive; ? = inconclusive; / = no result given.

| canonical_smiles | Bst PK mod | YjeE inh |
| --- | --- | --- |
| CCc1ccc2[nH]c(=O)c(CN(Cc3ccccc3OC)Cc3nnnn3Cc3ccco3)cc2c1 | >57 | i |
| O=C(c1cccs1)c1ccc(-c2cccs2)s1 | 6.3* | i |
| CCOC(=O)C1CCN(Cc2nc(-c3ccc(OC)c(OC)c3)no2)CC1 | >57 | i |
| CCn1nc(C(=O)OCc2c(C)noc2C)c2ccccc2c1=O | >57 | i |
| Cc1n[nH]c2ccccc2c1=O | / | i |
| COC(=O)c1cc(=O)nc2sc(-c3cccs3)nn12 | >57 | i |
| Cc1ccc(-c2cnc(-c3ccncc3)o2)cc1 | / | i |
| CCc1ccc(C=NC23CN4CN(CN(C4)C2)C3)s1 | / | i |
| Nn1c(SCC(=O)N2CCCCC2)nnc1-c1ccncc1 | >57 | i |
| O=C(NCC1CCCO1)c1cccc(Br)c1 (stereo not drawn) | >57 | i |
| COC(=O)c1ccccc1NC(=O)N1CCN(S(=O)(=O)c2ccc(Cl)cc2)CC1 | >57 | i |
| COc1ccc(CNc2nc3c(c(=O)n(Cc4ccc(F)cc4)c(=O)n3C)n2C)cc1 | >57 | i |
| Cc1noc(C)c1COC(=O)c1ccccc1NC(=O)Cc1ccccc1 | >57 | i |
| CCOC(=O)N1CCC(NC(=O)CCc2c(C)nc3nc(C)nn3c2C)CC1 | >57 | i |
| COCCN(C(=O)CNC(=O)c1cccs1)C(C(=O)NC1CCCC1)c1cccs1 (stereo not drawn) | >57 | i |
| C1=C(c2ccc(-c3ccccc3)cc2)Nc2ncnn2C1c1ccco1 (stereo not drawn) | / | i |
| O=C(CSCC(=O)NCc1ccco1)NCc1ccco1 | >57 | i |
| CC1(C)CC(=O)C(CC(=O)Nc2ccc(S(N)(=O)=O)cc2)=C(O)C1 | >57 | i |
| Cc1cc(C)n2c(SCc3cccs3)nnc2n1 | >57 | i |
| Clc1ccccc1-c1nnn(Cc2ccc(-c3nn[nH]n3)cc2)n1 | >57 | i |

Shown as a hit in Bst PK mod, among the entries above:
| canonical_smiles | Bst PK mod | YjeE inh |
| --- | --- | --- |
| O=C(c1cccs1)c1ccc(-c2cccs2)s1 | 6.3* | i |

Next part
| canonical_smiles | Bst PK mod | YjeE inh |
| --- | --- | --- |
| COc1ccc(Br)cc1/C=c1\sc2nc(-c3ccco3)nn2c1=O | >57 | i |
| COc1ccc(NC(=O)CC(NCCc2ccccc2)C(=O)O)c(OC)c1 (stereo not drawn) | >57 | i |
| CCOc1ccc2nc(NC(=O)C3CCN(S(=O)(=O)c4cnc[nH]4)CC3)sc2c1 | / | i |
| CCC1CCCCN1Cc1nc2c(c(=O)n(C)c(=O)n2C)n1Cc1cccc2ccccc12 (stereo not drawn) | / | i |
| CC1(C)CCC(=O)N[C@H]1CC(=O)C[C@H]1NC(=O)CCC1(C)C | / | i |
| CCCc1[nH]nc2c1C(c1ccc(OC)c(Cn3nc(C)c(Br)c3C)c1)C(C#N)=C(N)O2 (stereo not drawn) | >57 | i |
| COc1ccc2[nH]c(=O)c(C(c3nnnn3C3CCCCC3)N3CCN(C)CC3)cc2c1 (stereo not drawn) | >57 | i |
| O=C(c1ccncc1)N1CCC2(CC1)CCN(c1ccccn1)CC2 | / | i |
| CC1=C(C(=O)OCc2ccccc2)C(c2ccc(C(C)(C)C)cc2)NC(=O)N1CCCCCC(=O)O (stereo not drawn) | / | i |
| Cc1ccccc1C(=O)c1cccn1CC(=O)NCC1CCCO1 (stereo not drawn) | >57 | i |
| CCOC(=O)C1=C(C)OC(N)=C(C#N)C1c1c(C)nn(-c2ccccc2)c1Cl (stereo not drawn) | >57 | i |
| O=C(Nc1ccncc1)c1cccc(F)c1 | / | i |
| CCCCOc1ccc(S(=O)(=O)NCc2csc(C)n2)cc1 | >57 | i |
| O=C1C=C(NCCc2cc(Br)c(O)c(Br)c2)C(=O)c2ncccc21 | / | i |
| COc1cc2c(cc1NC(=O)CN(C)Cc1nc3ccccc3c(=O)[nH]1)oc1ccccc12 | / | i |
| Cc1ccc(N(C(=O)C2CCCC2)C2C=CS(=O)(=O)C2)cc1 (stereo not drawn) | >57 | i |
| CCOCCOCN(C#N)c1nc(OC)nc(N(C)C)n1 | >57 | i |
| Cc1ccc(CN2C(=O)CSc3ccc(C(=O)NCCN4CCOCC4)cc32)cc1 | i | i |
| O=c1c2cc3c(cc2[nH]c(=S)n1CCN1CCOCC1)OCO3 | >57 | i |
| CCOC(=O)C1CCN(C(=O)Cn2cc(C(=O)c3ccco3)c3ccccc32)CC1 | >57 | i |
| Cc1ccc(-c2nc(C3CCN(S(C)(=O)=O)CC3)no2)cc1 | >57 | i |
| CCc1ccccc1OCC(=O)NC1CCCC1 | >57 | i |
| O=C(CSc1ccc2c(c1)OCCO2)NCC1CCCO1 (stereo not drawn) | >57 | i |
| CS(=O)(=O)NC1CCN(Cc2ccccc2)CC1 | >57 | i |
| Cc1ccc(C(=O)Nc2ccc(O)c(C(=O)O)c2)o1 | >57 | i |
| CCc1nc2ccccc2c(C(=O)OC2CCOC2=O)c1C (stereo not drawn) | >57 | i |
| O=S(=O)(NCC1CCCO1)c1ccc(S(=O)(=O)N2CCc3ccccc3C2)cc1 (stereo not drawn) | >57 | i |
| COc1ccc(C2C(C(=O)OCC(=O)N3CCCCC3)CCC(=O)N2c2ccc(OC)cc2)cc1 (stereo not drawn) | >57 | i |
| CCN(CC)S(=O)(=O)c1ccc(Nc2nc3ccccc3n3nnnc23)cc1 | >57 | i |
| COc1ccc(-c2nc3cnc(N4CCOCC4)nc3n(Cc3cccc(OC)c3)c2=O)cc1 | / | i |
| COc1ccc(NC(=O)N2CCCC3(CCN(S(=O)(=O)c4ccccc4)CC3)C2)cc1 | / | i |
| CCNc1ncc2nc(-c3cn(C)c4ccccc34)c(=O)n(C[C@H]3CCCO3)c2n1 | / | i |
| CCOC(=O)C1=C(CSc2nncn2C)NC(=O)NC1c1cc(OCC)ccc1OCC (stereo not drawn) | >57 | i |
| Cc1ccc(S(=O)(=O)Nc2nsc(N)n2)cc1 | >57 | i |
| C=CCN1C2CCCC1CC(NC(=O)Nc1cccc(C(C)=O)c1)C2 (stereo not drawn) | >57 | i |
| COc1ccc(C(CNC(=O)c2cccc(N(C)C)c2)N2CCCC2)cc1 (stereo not drawn) | >57 | i |
| COc1ccc(C2=CC(=O)OC3(CCCCC3)O2)cc1 | >57 | i |
| CCOC(=O)c1c(C)nc2c3ccccc3ccn12 | 6.9* | i |
| NC(=O)C1CCN(CC(=O)Nc2ccccn2)CC1 | >57 | i |
| O=C1C2C3CCCC3=C3CCCC3C2C(=O)N1c1ccc(F)cc1 (stereo not drawn) | >57 | i |

Other compounds:
SMILES	Bst PK mod	YjeE inh
CCCc1c(O)nc(SCC(=O)NCCc2ccc(OC)c(OC)c2)[nH]c1=O	>57	i
O=C(O)c1cccc(CN2CCCCC2)c1	/	i
Cc1c(CCC#N)c(N2CCCCC2)n2c(nc3ccccc32)c1C#N	>26	/
O=C(NC(NCc1ccccn1)(C(F)(F)F)C(F)(F)F)c1ccco1	>57	i
CCCCNC(=O)c1ccc2c(c1)N(CC)C(=O)c1ccccc1S2(=O)=O	/	i
CCOc1ccc(C(=O)Nc2ccc(Cl)cn2)cc1Cl	/	i
CCC(=O)Nc1cccc(NC(=O)CSc2nnc(-c3ccc(NS(C)(=O)=O)cc3)n2C)c1	>57	i
CCOC(=O)C1CCN(c2c(NCCN3CCN(c4ccccc4)CC3)c(=O)c2=O)CC1	/	i
O=S(=O)(c1ccc(OCC(O)CN2CCN(c3ccccc3O)CC2)cc1)N1CCOCC1 (stereo not drawn)	>57	i
CCNCCNC(=O)c1c(O)c2ccccc2n(CC)c1=O	>57	i
COc1ccc(CC(=O)N2CCOCC2)cc1OC	/	i
C(=C\c1ccccc1)/CSc1nnc(-c2cccnc2)n1Cc1ccco1	>57	i
CC(C)Cc1nc(N2CCCCC2)c(C#N)c2c1CCC2	>26	/
CC(=O)Nc1ccc(C(=O)OCCC(C)C)cc1	/	i
CCCc1cc(=O)[nH]c(SCC(=O)Nc2ccc(OC(F)F)cc2)n1	>57	i
CCN(CC)c1ccc(NC(=O)c2cccc(C)c2OC)c(C)c1	/	i
O=C(NCCSc1ccccc1)c1ccccc1	/	i
COc1ccc(OC)c(NC(=O)CCN2CCN(c3ccccc3)CC2)c1	>57	i
O=C(Cn1c(=O)sc2ccccc21)N1CCOCC1	/	i
CC(OC(=O)CCc1nc2ccccc2[nH]c1=O)C(=O)c1ccccc1 (stereo not drawn)	>57	i
CCCC(=O)Nc1sc2c(c1C#N)CCCC2	>26	/
CC(C)n1c(CNC(=O)c2ccccc2)nc2ccccc21	>57	i
COc1cc(C)nc(SCC(N)=O)n1	>57	i
CCN(CC)CCCN1C(=O)C(O)=C(C(=O)c2ccc(C)o2)C1c1ccc(C)o1 (stereo not drawn)	>26	/

Compound profiles (already shown). Order of screens: Bst PK mod | YjeE inh
`CC(C)n1c(CNC(=O)c2ccccc2)nc2ccccc21` as listed: >57 | i
`O=C(NCCSc1ccccc1)c1ccccc1` as listed: / | i

Following part.
SMILES	Bst PK mod	YjeE inh
C=C(C)CSc1nc(N)c(C#N)c(-c2ccc(C)cc2)c1C#N	>57	i
Cc1cccc(N2CCN(C(=O)n3ccnc3)CC2)c1C	>57	i
CC(C)(C)NC(=O)CN(C(=O)c1ccc(CN2CCOCC2)o1)c1ccc2c(c1)OCCO2	>57	i
CCN=C1SC(CC(=O)Nc2ccc(N3CCOCC3)cc2)C(=O)N1CC (stereo not drawn)	/	i
CCOC(=O)c1ccc(-n2c(C)nc3ccccc3c2=O)cc1	/	i
O=C(CNCCO)NC12CC3CC(CC(C3)C1)C2	>57	i
COc1ccc(-c2nc3ccccc3o2)cc1NC(=O)c1ccc(Br)o1	/	i
CN(C)CC[C@@H](c1ccccc1)c1ccccn1	/	i
COC(=O)c1nc(NC(=O)C(C)C)n[nH]1	>57	i
O=C1CC(c2ccc(S(=O)(=O)NC3CC3)cc2)CN1 (stereo not drawn)	/	i
Cc1ccnc(NS(=O)(=O)c2ccc(N=CC3=C(O)CC(C)(C)CC3=O)cc2)n1	>57	i
COc1ccc(C)cc1NC(=O)c1nnn(Cc2cc(C)ccc2C)c1N	/	i
COc1ccc(-c2nnc(SCC(=O)Nc3cc(C)on3)n2C)cc1OC	>57	i
Cn1c(-c2ccc(C(=O)c3ccccc3)s2)nc2ccccc21	/	i
CN(C)C(=O)CSc1nnc([C@H](Cc2c[nH]c3ccccc23)NC(=O)OC(C)(C)C)o1	>57	i
CC1CCCCC1NC(=O)Cn1nc(-c2ccccc2)ccc1=O (stereo not drawn)	>57	i
CC(=O)Nc1ccc(Oc2ccc3nc(C)[nH]c3c2)cc1	>26	/
O=C(c1nc2ncccn2n1)N1CCN(c2ccccc2)CC1	>57	i
Fc1ccc(-c2cc(C(F)(F)F)nc(NCC3CCCO3)n2)cc1 (stereo not drawn)	>57	i
CCOC(=O)c1cnc(-n2nc(C)cc2C)nc1Nc1ccc2c(c1)OCO2	>57	i
Cn1c2ccc(CC(=O)O)cc2c2cc(CC(=O)O)ccc21	/	i
Cc1nn2c3ccccc3nc2n(C)c1=O	/	i
NS(=O)(=O)c1ccc(CCNc2cc(=O)n(Cc3ccc(F)cc3)c(=O)[nH]2)cc1	>57	i
CC(=O)CC(=O)Nc1ccccc1NC(C)=O	/	i
COc1ccccc1C(c1nnnn1CCc1ccccc1)N1CCN(c2ccccc2)CC1 (stereo not drawn)	>57	i
O=C(Cn1c(NCCCO)nc2ccccc21)c1cccc(Br)c1	>57	i
CCCN1C[C@H](CSC)C[C@H]2c3cccc4[nH]cc(c34)C[C@@H]21	/	i
Cc1ccc(S(=O)(=O)/C=C\C#N)cc1	/	i
CC(C)N1CCC2(CC1)N=C(c1ccc3c(c1)OCO3)CC(c1cc(Cl)ccc1O)N2 (stereo not drawn)	>57	i
O=C1c2ccccc2C(=O)N1SC1CCCCC1	>57	?
COc1cccc(C2/C(=C(/O)c3ccncc3)C(=O)C(=O)N2CCCN2CCOCC2)c1OC (stereo not drawn)	>57	i
O=C(c1ccco1)N1CCN(C(=O)c2cnn3c2NC(c2cccs2)CC3C(F)(F)F)CC1 (stereo not drawn)	>57	i
CCOC(=O)N1CCC(NC(=O)CSc2cc(=O)n(CC)c3ccccc23)CC1	>57	i
COc1cc2c(c(OC)c1OC)-c1ccc(OC)c(=O)cc1[C@H](NC(C)=O)CC2	/	i
COc1cccc(C(=O)CSc2nnc(CNS(C)(=O)=O)n2-c2ccc(C)cc2)c1	>57	i
CCN1CCN(Cc2nc3c(c(=O)n(C)c(=O)n3C)n2CCc2ccccc2)CC1	/	i

Five neighbouring entries out of the list so far:
SMILES	Bst PK mod	YjeE inh
CCCN1C[C@H](CSC)C[C@H]2c3cccc4[nH]cc(c34)C[C@@H]21	/	i
Cc1ccc(S(=O)(=O)/C=C\C#N)cc1	/	i
CC(C)N1CCC2(CC1)N=C(c1ccc3c(c1)OCO3)CC(c1cc(Cl)ccc1O)N2 (stereo not drawn)	>57	i
O=C1c2ccccc2C(=O)N1SC1CCCCC1	>57	?
COc1cccc(C2/C(=C(/O)c3ccncc3)C(=O)C(=O)N2CCCN2CCOCC2)c1OC (stereo not drawn)	>57	i

Next records
SMILES	Bst PK mod	YjeE inh
O=C(NCCCNC(=O)c1ccco1)c1ccco1	/	i
COc1cc(C(=O)O)cc(Br)c1OC1CCCC1	>57	i
COc1ccc(Cc2nc(-c3ccc(Cl)cc3)no2)cc1	>57	i
CCOC(=O)CCNC(=O)Nc1ccc2nc(C)n(Cc3ccc(Cl)cc3)c(=O)c2c1	>57	i
COc1cc(C(=O)N2CCN(c3cccc(C)c3C)CC2)cc(OC)c1OC	/	i
CN(C(=O)c1ccc2c(c1)OCO2)C1(C(=O)NC2CCCCC2)CCCCC1	i	i

A portion of the library. The share of hits here may be higher or lower than overall.
